RGS16-Gao: regulators of human RGS16-Galphao interaction; O15492+P09471; bead-based flow cytometry RGS16-Galphao binding, fluorescence; actives lie on both sides; binding response (% of control), % at 10 µM; hit rate 0.38% among 220,000; AID 1441;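 active = below 25% or above 175%, edge rows of some plates excepted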;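 note: Galphao activated by GDP with aluminum fluoride before binding; 100% = wells without compound and 0% = beads without RGS; some results beyond the cut were filed as inactive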
Target sequence (O15492 whole entry, looked up): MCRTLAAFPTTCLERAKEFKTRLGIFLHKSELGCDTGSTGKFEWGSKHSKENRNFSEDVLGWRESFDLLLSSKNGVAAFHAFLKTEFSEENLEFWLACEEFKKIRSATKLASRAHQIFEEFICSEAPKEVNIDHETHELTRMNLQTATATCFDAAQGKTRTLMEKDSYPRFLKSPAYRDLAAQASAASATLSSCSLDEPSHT
Target sequence (P09471 whole entry, looked up): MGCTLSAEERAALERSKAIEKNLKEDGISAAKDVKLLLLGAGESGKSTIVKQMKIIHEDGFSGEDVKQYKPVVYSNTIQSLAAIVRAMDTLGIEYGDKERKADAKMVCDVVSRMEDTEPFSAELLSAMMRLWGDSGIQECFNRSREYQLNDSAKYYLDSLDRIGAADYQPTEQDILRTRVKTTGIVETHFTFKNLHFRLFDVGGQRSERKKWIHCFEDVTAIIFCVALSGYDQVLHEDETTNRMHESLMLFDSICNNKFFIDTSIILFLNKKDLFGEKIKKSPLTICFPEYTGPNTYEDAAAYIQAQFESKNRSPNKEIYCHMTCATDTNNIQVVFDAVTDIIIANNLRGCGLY
HSV replic up: increases HSV replication in cells; HSV replication augmentation in cells, fold increase; maximum fold increase; hit rate 0.005% among 220,000;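 active = peak rise of 1.5-fold or more in the series; tested in PC3 cells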;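 note: first round at 10 µM; read as green reporter fluorescence; hits show the peak of a series up to 25 µM; 1 = signal of infected wells without compound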
PKD1 kinase inh: blocks activity of human protein kinase D1; Q15139; PKD1 kinase fluorescence polarization assay; inhibition, %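 (about 10 µM by stock and volumes)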; hit rate 0.056% among 200,000;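 active = inhibition of 50% or more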;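 note: controls were vehicle for no effect and a reference inhibitor for full effect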
INS promoter inh: TRM-6 insulin promoter activity inhibition; TRM-6 cells (human fetal islet line), insulin promoter-eGFP reporter, imaging; reporter expression induced with tamoxifen; inhibition, % at 2 µM; hit rate 0.9% among 130,000;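 active = inhibition above the mean plus 3 SD, with well images judged a real hit on visual review, cut at about 60% in these data, passing the limit was not always enough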
GALR2 agonist: activates the human galanin receptor 2; activation, %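 (tested at 5 µM)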; hit rate 0.48% among 140,000; O43603; AID 803; GALR2-expressing cells, agonist activation read-out;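 active = above mean plus 3 SD of all compounds, about 5% in these data, not always enough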;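 note: 0% = vehicle buffer wells and 100% = reference agonist at full effect; tested in CHO reporter cells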
Target sequence (O43603 whole entry, looked up): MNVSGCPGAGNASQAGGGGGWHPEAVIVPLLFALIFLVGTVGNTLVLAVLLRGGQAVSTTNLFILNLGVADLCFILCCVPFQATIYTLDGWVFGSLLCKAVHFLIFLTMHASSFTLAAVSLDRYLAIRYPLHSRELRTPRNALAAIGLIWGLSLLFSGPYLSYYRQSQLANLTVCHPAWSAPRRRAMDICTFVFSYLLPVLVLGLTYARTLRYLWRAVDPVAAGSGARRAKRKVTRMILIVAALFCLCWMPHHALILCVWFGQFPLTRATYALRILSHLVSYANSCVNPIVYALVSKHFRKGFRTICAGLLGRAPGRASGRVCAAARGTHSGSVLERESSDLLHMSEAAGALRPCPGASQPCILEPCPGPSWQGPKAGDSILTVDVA
INS promoter inh cell count: recorded beside INS promoter inh, whose call it bears; normalized cell count, %; measured here: cell count, toxicity; reference of the scale not given here;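 cells exposed to compound for 48 h; stained nuclei by imaging scaled within each plate; lower means fewer cells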
HSV replic up primary fold: second read-out of HSV replic up, no call of its own (marks repeat the call); fold increase; compound at 10 µM; measured here: primary screen fold increase 10 uM; tested in PC3 cells;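 GFP signal in the first replicate; 1 = infected wells without compound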
An asterisk follows results filed as active; i = inactive; . = no result given; & = joins results of further samples. Rows were taken by chance. Share with any hit: about 1.3%.

SMILES	RGS16-Gao	HSV replic up	HSV replic up primary fold	PKD1 kinase inh	INS promoter inh	INS promoter inh cell count	GALR2 agonist
Cn1c(=O)[nH]c(=O)c2c1nc(Br)n2C/C=N/NC(N)=S	100.5	i	0.77	.	.	.	.
Cc1nnc(NC(=O)CSc2nnc(Cc3cccn3C)n2CCc2ccccc2)s1	105.1	i	0.72	16.5	.	.	-0.4
O=C(CCc1nc2ccccc2[nH]1)Nc1ccc2c(c1)OCO2	90.4	i	1	0.6	72.4	124.2	-1.5
CCOC(=O)C1CCN(C(=O)CNS(=O)(=O)c2ccc(Br)s2)CC1	106.9	i	1.03	1.3	.	.	-3.4
CCCCN(CC)S(=O)(=O)c1ccc(C(=O)N(CCCN(C)C)c2nc3cc(C)cc(C)c3s2)cc1	74.3	i	0.7	3.2	41.7	59.2	.
Cc1cc([N+](=O)[O-])cc2c1NC(=O)C2(O)N1CCCCCC1 (stereo not given)	43.9	i	1.07	2.8	32.3	91.5	-1.1
C=CCn1c(N)c(C(=O)Nc2ccc(C)c(C)c2)c2nc3ccccc3nc21	100.4	i	0.85	-7.7	-28.9	78.3	1.2
CC1CCc2c(C(=O)Oc3cccc(-n4cnnn4)c3)csc2C1 (stereo not given)	102.7	i	0.88	-6.7	.	.	-1.0
CCN(C(=O)COC(=O)CNC(=O)c1ccc2ccccc2c1)C1CCS(=O)(=O)C1 (stereo not given)	103.2	i	0.93	-3.4	.	.	.
COc1ccc(C(=O)CSc2nnc(CNc3ccc(C)cc3C)n2Cc2ccco2)cc1	97.1	i	0.95	-4.5	.	.	0.4
CCOc1cc(CO)c(Br)cc1OCC(=O)O	101.1	i	1.21	-4.6	-50.0	106.1	-1.4
O=C(CN1CCC(n2nnc3cc(F)ccc32)CC1)N1CCCc2ccccc21	99.2	i	0.69	-4.7	45.5	85.1	0.3
Clc1ccccc1N=C1SCCS1	104.2	i	0.98	.	.	.	.
NC(=O)C1CCN(C(=O)CCC(=O)c2ccc(Br)cc2)CC1	104.8	i	0.92	1.0	.	.	.
CCOC(=O)N1CCN(c2ccc(C(F)(F)F)cn2)CC1	104.2	i	0.97	-8.9	38.2	123.3	-1.5

Already shown: 2 of the compounds above.
SMILES	RGS16-Gao	HSV replic up	HSV replic up primary fold	PKD1 kinase inh	INS promoter inh	INS promoter inh cell count	GALR2 agonist
Cn1c(=O)[nH]c(=O)c2c1nc(Br)n2C/C=N/NC(N)=S	100.5	i	0.77	.	.	.	.
Cc1nnc(NC(=O)CSc2nnc(Cc3cccn3C)n2CCc2ccccc2)s1	105.1	i	0.72	16.5	.	.	-0.4

(cont.)
SMILES	RGS16-Gao	HSV replic up	HSV replic up primary fold	PKD1 kinase inh	INS promoter inh	INS promoter inh cell count	GALR2 agonist
CC(C)CCNC(=O)NC(=O)COC(=O)c1cc(S(=O)(=O)N2CCOCC2)ccc1N1CCCCC1	15.6*	i	0.83	-0.3	-9.7	179.8	-2.1
O=C(O)CCC(=O)N1CCc2cc(S(=O)(=O)N3CC=C(c4ccccc4)CC3)ccc21	119.4	i	0.95	-5.7	.	.	0.8
Cc1cccc(N(CC(=O)NC2CCCC2)C(=O)CCCC(=O)Nc2ccccn2)c1	96.3	i	1.02	-1.8	-11.9	84.9	-1.9
COc1ccc(Cc2c(O)nc(SCC(=O)N3CCCCCC3)[nH]c2=O)cc1	99.7	i	0.89	-2.5	-5.3	59.0	-4.1
Cc1cc(C(=O)NC(CC(C)C)C(=O)O)cc(C)c1[N+](=O)[O-] (stereo not given)	113.9	i	0.89	4.7	.	.	-1.1
O=C1c2ccccc2NC(c2ccc([N+](=O)[O-])cc2)N1O (stereo not given)	96.1	i	0.92	-3.4	.	.	.
Cc1ccc(C(C)C)c(OCC(=O)NN=C2CCCC2)c1	102.2	i	0.99	1.0	25.0	133.0	.
CCOC(=O)/C(=N\NC(=O)c1ccccc1)c1ccccc1	105.2	i	0.75	-6.4	9.7	184.2	-2.0
CC12CC(O)C3c4ccc(O)cc4CCC3C1CCC2=O (stereo not given)	106.9	i	0.98	-6.9	-7.3	137.7	.
CN(C)CC(C)(C)CNS(=O)(=O)c1ccc(Cl)c(Cl)c1	103.9&96.2	i	0.96&0.9	-4.4&0.6	-72.2&-13.5	118.0&86.5	-2.4
CNc1ccccc1C(C)(C)c1cc(-c2ccc(F)cc2)no1	103.3	i	1.2	-11.0	.	.	-0.2
CCc1noc(C)c1C(=O)N1CC(C)OC(C)C1 (stereo not given)	98.5	i	0.96	-3.0	.	.	-1.8
COC(=O)C[N+](C)(C)CC#Cc1ccccc1	81.5	i	0.95	-11.9	38.5	99.7	-2.1
N=c1c2c3c(sc2ncn1CCCO)CCCC3	99.3	i	1.08	-7.8	29.6	87.6	-0.2
CCN(CC)S(=O)(=O)c1cccc(NC(=O)c2ccc(Sc3nncn3C)c([N+](=O)[O-])c2)c1	100.7	i	0.89	-2.1	.	.	.
COc1ccc(Nc2nc(N/N=C/c3ccc(N(C)C)cc3)nc(C)c2[N+](=O)[O-])cc1	96.1	i	0.8	-0.5	.	.	-0.1
O=C(Nc1ccccc1C(F)(F)F)N1CCC(N2CCCCC2)CC1	95.2	i	0.92	-10.5	.	.	-1.8
CN(C)CCNC(=O)/C(=N\O)c1ccccn1	100.9	i	0.99	-8.8	.	.	.
CCN=C1SC(C(=O)Nc2ccccc2)CC(=O)N1CC (stereo not given)	77.2	i	0.83	0.9	.	.	-1.8
O=C(O)C1(c2ccccc2)CCN(S(=O)(=O)c2cccs2)CC1	104.6	i	0.94	-2.0	.	.	.
CC(C)OCCCN1CN(S(=O)(=O)c2ccc(Cl)cc2)c2nc3ccccc3nc21	103.2	i	0.977	-9.5	24.4	87.5	-0.2
COc1ccc(CC(=O)NNC(=S)NCC2CC2)cc1OC	97.7	i	1.13	.	.	.	.
CN(CC(=O)Nc1ccc(SC(F)F)cc1)C1CCCCC1	103.6	i	0.73	2.8	14.3	127.2	.
O=C(COc1ccccc1)N1CCN(c2ncccn2)CC1	97.3	i	0.97	-0.6	-15.4	133.5	.
C/C(CC1CC(C)OC1=O)=N\NC(N)=S (stereo not given)	99.2	i	0.95	12.7	.	.	-0.3
S=C(c1c[nH]c2ccccc12)N1CCOCC1	93.2	i	0.95	-2.2	.	.	.
O=C(Cc1ccc(Br)cc1)NCCc1ccc(Cl)cc1Cl	96.2	i	0.85	-6.1	-2.9	105.6	-0.7
Cc1cc(C)c(NC(=O)/C(C#N)=C/c2ccc(OCc3ccc(F)cc3)cc2)c(C)c1	92.0	i	1.16	-2.4	.	.	0.2
O=C1CN(C(=O)COc2ccc(Br)cc2)c2ccccc2N1	98.4	i	0.83	-2.7	.	.	.
CCOc1ccc(C(C)NC(=S)NCc2ccc(Cl)cc2)cc1 (stereo not given)	99.0	i	1.01	-1.1	-11.6	86.5	.

Another view of part of the listing above.
SMILES | RGS16-Gao | HSV replic up | HSV replic up primary fold | PKD1 kinase inh | INS promoter inh | INS promoter inh cell count | GALR2 agonist
COc1ccc(Nc2nc(N/N=C/c3ccc(N(C)C)cc3)nc(C)c2[N+](=O)[O-])cc1 | 96.1 | i | 0.8 | -0.5 | . | . | -0.1
O=C(Nc1ccccc1C(F)(F)F)N1CCC(N2CCCCC2)CC1 | 95.2 | i | 0.92 | -10.5 | . | . | -1.8
CN(C)CCNC(=O)/C(=N\O)c1ccccn1 | 100.9 | i | 0.99 | -8.8 | . | . | .

Remaining list, next part
SMILES	RGS16-Gao	HSV replic up	HSV replic up primary fold	PKD1 kinase inh	INS promoter inh	INS promoter inh cell count	GALR2 agonist
Cc1cccc(NC(=O)C2(C)CC3c4ccccc4C2c2ccccc23)c1C (stereo not given)	140.2	i	1.13	-7.6	.	.	-0.4
O=c1[nH]c(CSc2ccccn2)nc2c1oc1ccccc12	100.0	i	0.98	1.9	.	.	.
O=C1C2C3C=CC(C3)C2C(=O)N1c1ccc(N2CCN(c3ccccn3)CC2)c([N+](=O)[O-])c1 (stereo not given)	93.5	.	.	-3.1	.	.	.
COc1ccc(N2C(S)=C(C#N)C(=O)NC23CCCCC3)cc1	97.8	i	0.95	-1.0	-72.2	59.6	.
COc1ccc(CC(=O)n2nc(-c3ccc(Cl)cc3)nc2NCc2ccco2)cc1	99.1	i	0.89	5.0	-38.2	46.8	-3.4
O=C(NCc1ccc(F)cc1)c1ccccc1OCc1ccccc1	41.1	i	0.95	-21.1	-38.9	69.5	1.8
COc1ccc(-n2c(=O)c3c4c(sc3n(CC(=O)Nc3cc(C)[nH]n3)c2=O)CCC4)c(OC)c1	97.6	i	0.86	2.5	.	.	.
Cc1ccc(CS(=O)(=O)Cc2ccc(C(=O)NCC3CCCO3)o2)cc1 (stereo not given)	105.9	i	0.94	-6.4	-15.6	134.1	-1.3
CC1(C)Oc2ccc(C(=O)N3CCCC3)cc2N(CC(=O)NCc2ccccc2)C1=O	97.2	i	1.03	17.2	.	.	-1.0
CCC(C)NC(=O)C1c2cc(OC)c(OC)cc2C(=O)N(C)C1c1ccc(OC)cc1 (stereo not given)	96.4	i	0.94	-4.6	8.6	110.5	-0.8
CC1(C)Cc2c(c(N3CCCC3)nc3sc4c(N5CCN(CCO)CC5)ncnc4c23)CO1	100.8	.	.	9.8	.	.	3.9
CCCCNC(=O)C1CCN(S(=O)(=O)N2CCCCCC2)CC1	114.5	i	0.94	-7.7	-11.1	114.1	-0.9
Cc1ccc(NC(=O)c2cnccn2)c(OC(F)F)c1	136.2	i	0.97	-0.9	-358.8	47.8	-0.6
COc1ccccc1/C=C(/NC(=O)c1ccc(Cl)cc1Cl)C(=O)O	98.9	i	0.9	-6.4	25.0	108.1	.
Cc1cc(C)cc(N(CCC#N)C(=O)CSC2=Nc3ccccc3C3CC=NN23)c1 (stereo not given)	98.0	i	0.9	-3.7	.	.	.
O=C(CN1c2ccccc2Sc2ccccc21)N/N=C/c1ccccc1	98.9	i	0.9	.	.	.	.
COc1c(C)cccc1C(=O)Nc1ccc(N2CCN(S(C)(=O)=O)CC2)cc1	100.0	i	0.79	-5.2	.	.	-0.5
CCOc1ccccc1NC(=O)CSc1nnnn1Cc1ccccc1	135.3	i	0.93	-3.2	-47.1	92.5	-1.0
COc1ccc(C(=O)NNC2=NCCCCC2)cc1	101.6	i	0.98	-6.2	0.0	100.0	.
COc1cccc(/C=N/NC(=O)c2nc(-c3ccccc3)cc(-c3ccccc3)n2)c1O	93.5	i	0.68	5.1	10.7	136.4	-0.3
O=[N+]([O-])c1ccc(N2CCN(C(=S)Nc3ccc(F)cc3F)CC2)cc1	104.7	i	0.94	-6.5	-15.8	135.1	.
CC(=O)Nc1cc[n+](C(C)C(=O)c2ccc(Cl)cc2)cc1 (stereo not given)	93.6	i	0.85	2.8	23.1	107.5	.
COc1cccc(-n2cnnn2)c1	100.4	i	0.86	1.9	5.7	191.9	-0.9
COc1ccc(OCC(=O)Nc2cc(C)c(Cl)cc2OC)c([N+](=O)[O-])c1	146.3	i	1.03	-7.8	60.0	79.8	-1.1
CCC(=O)Nc1cc(Cl)ccc1C(=O)O	59.9	i	0.95	6.4	-15.5	110.6	-2.4
CCCOC(=O)Cc1c(O)c2ccccc2[nH]c1=O	99.3	i	0.79	-4.2	.	.	-0.2
Cc1ccc(C)c(NC(=O)C2CC(=O)N(C(C)C)C2)c1 (stereo not given)	90.9	i	1.02	0.6	.	.	-1.6
COCCNC(=O)C1CC(c2ccc(F)cc2)=NO1 (stereo not given)	105.2	i	0.79	4.0	26.8	68.9	-4.4
O=C(NCC(=O)N(Cc1ccco1)C(C(=O)NC1CCCC1)c1ccncc1)c1cccs1 (stereo not given)	104.5	i	1.04	-5.3	37.1	94.2	-1.5
CCOC(=O)c1c(NC(C)=O)sc2c1CCC(C=O)=C2Sc1ccccc1	89.1	i	0.93	-4.5	-113.9	99.2	4.8
Cc1cc(NC(=O)c2cn(C3CCCCC3)c(=O)c3c2c2ccccc2n3C)no1	102.5	i	0.69	-6.9	.	.	-0.5
O=C(Nc1nccs1)c1ccc(-c2cccc([N+](=O)[O-])c2)o1	104.6	i	0.78	-9.3	.	.	.
CC(C)Cn1c(/C=C/c2ccccc2)nc2ccccc21	99.5	i	1.07	5.8	-47.1	108.2	-0.6
Cc1ccc(CNC(=O)CSc2nc3[nH]ncc3c(=O)[nH]2)cc1	137.2	i	1.01	-7.9	.	.	-1.1
COC(=O)c1ccc(S(=O)(=O)N2CCN(C)CC2)n1C	107.8	i	1.03	.	.	.	.
Cc1ccc(-c2cc(-c3ccc(Cl)cc3)c(C#N)c(N)n2)o1	88.0	i	1.27	-2.0	-65.5	155.7	13.3*
Cc1cc2ccc3ccccc3c2cc1CN(C)C	92.4	i	0.76	.	.	.	.
COc1ccc(/C=[N+](\[O-])C2N(c3ccccc3)C(=S)SC2(C)C)cc1OC (stereo not given)	96.5	i	0.88	.	.	.	.
O=C(NNC(=O)c1cccnc1)Nc1ccc(Cl)c(Cl)c1	111.3	i	0.95	-3.0	16.0	130.5	-2.1

Screening results: PubChem, several laboratories
